TRPML1 inh: qHTS for Inhibitors of the Human Mucolipin Transient Receptor Potential 1 (TRPML1) | TRPML1-inducible cells, Ca2+ dye fluorescence, FDSS; active compounds read low; inhibition of EC80 agonist-evoked calcium signal | hit rate 0.02% among 390,000 | activity change, negative = inhibition, % (no concentration beside the values) | AID 624415, 2012; in the data active means activity change below about -50%; inconclusive means about -30% to -50%; inactive means above about -30%;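 also: stimulus is agonist 54-4 at its EC80 concentration; % is scaled to controls: 0 for no effect and ±100 for the full control effect; compound concentration not given in the record; the text of the record puts the active cut at -80%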
Target sequence (Q9GZU1 whole entry, looked up): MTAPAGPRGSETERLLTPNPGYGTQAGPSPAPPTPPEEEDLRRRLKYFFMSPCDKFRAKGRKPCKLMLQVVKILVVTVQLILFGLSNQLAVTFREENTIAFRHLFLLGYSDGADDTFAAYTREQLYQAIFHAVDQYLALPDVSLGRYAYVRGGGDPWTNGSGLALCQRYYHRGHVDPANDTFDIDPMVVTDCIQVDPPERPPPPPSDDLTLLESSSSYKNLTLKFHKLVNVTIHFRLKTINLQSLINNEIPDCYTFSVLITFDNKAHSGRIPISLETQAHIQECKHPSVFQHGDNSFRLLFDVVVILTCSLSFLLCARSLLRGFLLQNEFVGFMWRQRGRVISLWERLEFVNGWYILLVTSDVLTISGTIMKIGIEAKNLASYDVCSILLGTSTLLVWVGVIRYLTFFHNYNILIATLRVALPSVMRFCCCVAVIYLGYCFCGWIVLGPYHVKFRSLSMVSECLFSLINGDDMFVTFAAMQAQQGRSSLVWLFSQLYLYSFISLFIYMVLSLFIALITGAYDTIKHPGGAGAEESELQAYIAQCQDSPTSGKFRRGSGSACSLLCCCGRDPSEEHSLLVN
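TRPML1-DL cells, Tet-induced overnight (~16 h, 37 °C) at 1,500 cells/well, were loaded with Ca8 no-wash dye plus quencher for 45-90 min at room temperature. Compounds were pinned during FDSS kinetic reading; agonist 54-4 at EC80 (4 uM final) then added.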
TRPV1 potentiator: HTS Assay for Compounds that Act as Potentiators of the Vanilloid Receptor 1 | Transient receptor potential cation channel subfamily V member 1 (Homo sapiens), Q8NER1 | TRPV1-expressing cells, Fluo-8 calcium influx, capsaicin EC20 potentiation; host cell line not named in the record; control for the full effect not named in the record | potentiation, % at 8.33 µM | hit rate 0.02% among 320,000; active means potentiation above 80%; inconclusive means 30% to 80%; inactive means below 30%; also: 0% is about no effect
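Fluo-8 calcium influx in TRPV1-expressing cells, kinetic read (ex 480/em 520 nm). Compound added and read 3 min for agonist activity, followed by capsaicin at EC20 final and 2 min further read for enhancement.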
Sfp inh: qHTS Assay for Inhibitors of Bacillus subtilis Sfp phosphopantetheinyl transferase (PPTase) | 4'-phosphopantetheinyl transferase ffp (Bacillus subtilis), Q9F4F7 | Biochemical Sfp PPTase activity, qHTS | Potency, µM, without a hit: max response, negative = inhibition, hits mostly inhibitors | hit rate 3.5% among 310,000; active = well fitted inhibition curve with a large enough effect; inconclusive = small, poorly fitted or top-dose-only effect, or another doubt; inactive = no such curve, though single readings can be large or run the other way;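 also: the enzyme is Sfp with the accession as filed and its product quenches rhodamine fluorescence; potency is read from the fitted curve at half-maximal effect; 0% = enzyme reaction without inhibitor and -100% = no enzyme wells; top concentration of the series not given in the record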
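Step 1, compound plus 15 nM Sfp-PPTase, 15 min, room temperature. Step 2, add rhodamine-CoA (5 uM) and BHQ-2-YbbR (12.5 uM). Step 3, read 525/598 nm fluorescence at 0 and 30 min.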
TRPML1 agonist: qHTS for Agonists of the Human Mucolipin Transient Receptor Potential 1 (TRPML1); hit rate 0.12% among 410,000; Mucolipin-1 (Homo sapiens), Q9GZU1; TRPML1-expressing cells, Ca2+ dye fluorescence, FDSS; host cell line not named in the record; reference of the full effect not given here; AID 624414, 2012; activation, % (test concentration not listed); in the data active = activation above about 50%; inconclusive = about 30% to 50%; inactive = below about 30%; also: 0% is about no effect; the text of the record puts the active cut at 80%
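Cells: TRPML1-DL, 1X Tet inducer, ~16 h at 37 degrees C/5% CO2. Dye: ABD Ca8 no-wash + quencher, 45-90 min RT. Read: 10 s baseline, compound add, 110 s agonist phase; 54-4 EC80 (4uM final), 110 s antagonist phase.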
ClpP mod: qHTS Assay for Activators of ClpP; ATP-dependent Clp protease proteolytic subunit (Bacillus subtilis (strain 168)), P80244; purified B. subtilis ClpP, FRET peptide cleavage, 20 min; Potency, µM (titrated, usually from 57.5 µM), inactives show at the highest dose activity change, negative = active; hit rate 1.9% among 340,000; AID 651965, 2013; active = well fitted falling curve with a large enough effect; inconclusive = small, poorly fitted or top-dose-only effect; inactive = no such curve, though single readings can be large or run the other way; also: potency is read from the fitted curve at half-maximal effect; the source files actives as falling curves though it sought activators and does not explain the sign; nearly all actives have a fitted effect of over 65% in size; many hits overshoot -100%
Target sequence (P80244 whole entry, looked up): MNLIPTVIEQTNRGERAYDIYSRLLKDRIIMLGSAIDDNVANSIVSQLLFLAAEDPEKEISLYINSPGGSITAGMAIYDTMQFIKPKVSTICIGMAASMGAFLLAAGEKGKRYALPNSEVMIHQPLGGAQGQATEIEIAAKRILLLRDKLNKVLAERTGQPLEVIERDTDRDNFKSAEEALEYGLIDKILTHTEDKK
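ClpP 10 microg/mL final, pH 8 Tris/KCl buffer with BSA, glycerol, Tween-20; compound pinned in; FRET-FV substrate; RT 20 min; Ex320/Em430; ΔFRET vs ADEP 5.8 microM, DMSO, no enzyme.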
PINK1 modulator: A Quantitative High throughput Screen to Identify Chemical Modulators of PINK1 Expression | Potency, µM (doses to about 76.6 µM), without a hit: top-dose activation (PINK1 increase), most hits filed as activators | PINK1 immunofluorescence, high-content cytometry, 24 h | hit rate 0.2% among 410,000; active = well fitted activation curve with a large enough effect; inconclusive = small, poorly fitted or top-dose-only effect; inactive = flat fitted curve, though single readings scatter; cell line not stated here;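 also: potency is read from the fitted curve at half-maximal effect; % of control where 0% means no effect; nearly all actives have a fitted effect of over 65% in size; a mitochondrial uncoupler was the plate control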
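Stable cell line treated 24 h with compounds at 5 concentrations (CCCP controls), then fixed and immunostained for PINK1 plus nuclear and cell stains; PINK1 immunofluorescence quantified by laser-scanning microplate cytometry.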
Menin-MLL FL inh: qHTS Assay for Inhibitors Targeting the Menin-MLL Interaction in MLL Related Leukemias: Competition With Fluorescein Labeled MLL-derived Peptide; Fluorescence polarization, fluorescein-MLL peptide displacement from menin; FP activity change, % at 61.4 µM; 290,000 tested, under 10 active; inconclusive = falling polarisation curve, or a change in total fluorescence; inactive = total fluorescence flat and polarisation flat or rising; no compound was filed as active; the % refers to the polarisation; negative = inhibition;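 also: % of control where 0% means no effect; inhibitors lower the polarisation; unlabelled MLL peptide was the positive control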
Numbers without * were called inactive; ? = inconclusive; . = no result given; & = joins results of further samples; [ ] = remark or other dose.

Values run as follows: TRPML1 inh | TRPV1 potentiator | Sfp inh | TRPML1 agonist | ClpP mod | PINK1 modulator | Menin-MLL FL inh
CCOC(=O)C1=C(CC)OC(N)=C(C#N)C1c1cccs1 (centres undefined)
  -17 | -6 | -8% | -0.3 | -5.8% | . | 4.3
O=C(C[n+]1ccc(/C=N/O)cc1)NC1CCCCC1
  -15 | -9 | 16% | 1.5 | . | 0.5% | -5.2
CC(=O)c1c(C)[nH]c(C(=O)CN2C(=O)NC(C)(C)C2=O)c1C
  11 | 4 | . | -0.7 | -1.3% | 1.1% | .
COCCn1c(COc2cccc(OC)c2)nnc1SCC(=O)NC1CCCC1
  11 | -1 | 16% | -0.4 | . | -0.7% | 4.0
CC(C)C(=O)c1cn(CC(=O)NCc2ccco2)c2ccccc12
  13 | -2 | 19% | -1.0 | -0.1% | -1.7% | 3.0
O=C(CNC(=S)N(Cc1ccccc1)Cc1cccnc1)NCCc1ccccc1
  11 | ? | 2% | -0.2 | 1.5% | -1.6% | 1.4
C[C@@H]1CN([C@H](C)CO)C(=O)c2c(c3ccccc3n2C)-c2ccccc2CO[C@H]1CN(C)Cc1ccc2c(c1)OCCN2C
  21 | . | . | -0.2 | -0.3% | 0.7% | .
CCSc1nnc2c(n1)OC=Nc1ccc(Br)cc1-2
  -18 | 0 | 10% | -0.1 | 13% | -0.2% | 4.1
CCOc1ccc(NC(=O)[C@@H](c2ccccc2)N2Cc3ccccc3C2=O)cc1
  -15 | . | . | -0.6 | 0.7% | 0.9% | .
CSc1ccccc1NC(=O)COc1ccc(S(=O)(=O)N2CCCC2)cc1
  -1 | -11 | 4% | 0.9 | 1.0% | -4.5% | 0.9
CC(/C=N/NC(=O)c1cc(-c2ccc(C)s2)[nH]n1)=C\c1ccccc1
  -5 | 2 | 18% | 0.2 | . | 5.6% | 1.4
CCCn1c(SCC(=O)Nc2ccc(OCC)cc2)nnc1C(C)C
  -14 | 3 | 1% | 0.8 | -0.2% | 0.3% | 5.6
Cc1ccc(/C=C2\SC(=S)N(CCCC(=O)Nc3cccnc3)C2=O)cc1
  6 | -4 | -6% | 0.3 | 1.6% | 5.0% | .
CCOc1ccc(C(=O)CSc2nc3cc(C(=O)NC4CCCC4)ccc3c(=O)n2CC2CCCO2)cc1 (centres undefined)
  -5 | . | . | -0.6 | -1.6% | 0.4% | .
CC(=O)N1c2ccc(S(=O)(=O)N3CCCC3C(=O)NCc3ccccc3Cl)cc2CC1C (centres undefined)
  0 | -9 | 10% | 1.0 | 1.8% | -2.3% | 0.9
Cc1ccc(C(=O)N(CC(=O)NC2CCCC2)Cc2cccs2)s1
  12 | -31 | -2% | -0.2 | -3.2% | -3.2% | 2.4
O=C(Nc1ccncc1)c1cc(-c2cccc(Br)c2)nc2ccccc12
  -2 | -22 | . | 0.6 | -14% | 11% | .
Cc1ccccc1CN1CCN(S(C)(=O)=O)CC1
  14 | 0 | 15% | -1.0 | -0.1% | -2.0% | -0.2
COc1cccc(C(O)c2nc(-c3cccc4cccnc34)cs2)c1 (centres undefined)
  . | . | . | -0.9 | ? | 2.2% | .
Cc1ccccc1C(C)(O)c1cnc(C)n1Cc1ccccc1 (centres undefined)
  -5 | . | . | -0.1 | -0.5% | -0.7% | .
CCc1ccccc1NC(=O)c1cc(-c2cccc(O)c2)on1
  -6 | . | 11% | 0.4 | 0.3% | 5.2% | 2.5
Cc1cc(C)c2c(c1)[C@@H]1C=CC[C@@H]1[C@H](c1ccc(S(=O)(=O)N3CCOCC3)cc1)N2
  1 | 18 | 10µM* | -0.6 | -9.4% | -0.5% | .
Cc1ccc2c(c1)NC(=O)C(CC(=O)Nc1ccc(Br)c(C)c1)O2 (centres undefined)
  44 | 27 | ? | 1.4 | 0.4% | 24% | 1.1
COc1ccccc1C(=O)NCC(=O)OCC(=O)c1cccc2ccccc12
  -16 | 27 | . | 0.1&4.3 | 0.9% | 0.0%&1.7% | .
CCN1C(=O)/C(=C/c2ccc(C)o2)N(C)C1=S
  0 | 1 | 6.3µM* | 20 | 4.4% | -1.2% | 9.0
Cc1ccc(S(=O)(=O)Oc2ccc(C(c3c(C)[nH][nH]c3=O)c3c(C)[nH][nH]c3=O)cc2)cc1
  2 | 12 | -11% | -0.2 | -4.0% | 9.6%[38.3 µM] | 3.7
COc1ccc2nc3ccccc3nc2c1NC(=O)c1ccc(Cl)cc1Cl
  1 | -8 | 11% | 3.1 | 1.3% | 3.8% | ?
CCCCn1c(N)c(N(CCOC)C(=O)c2ccc3c(c2)C(=O)N(c2cc(C)ccc2C)C3=O)c(=O)[nH]c1=O
  -1 | 10 | 26% | -0.5 | -3.4% | 1.3% | .
COCCN(C(=O)CSc1nnc(-c2ccncc2)n1C)c1c(N)n(CC(C)C)c(=O)[nH]c1=O
  -3 | . | . | 0.8 | 0.5% | -0.2% | .
Cc1cc(N2CCCCC2)c(F)cc1[N+](=O)[O-]
  -16 | -3 | 5% | 1.4 | 0.6% | 1.0%[38.3 µM] | 0.9
CS(=O)(=O)N(CC(=O)NN=C1CCCCCC1)c1ccc(Oc2ccccc2)cc1
  -5 | 4 | -2% | -0.9 | 0.8% | 5.5% | 0.9
Cc1ccc(CNC(=O)CSc2nnc3n2CCCCC3)cc1
  -3 | -1 | . | -0.1 | -1.1% | 2.3% | .
COC(=O)C(C)Sc1n[nH]c(=S)s1 (centres undefined)
  -19 | 12 | 50µM* | -0.5 | 1.6% | 4.5% | 0.3
CCOc1ccc(NC(=O)CCc2c(C)nc3c4c(C)cc(C)nc4nn3c2C)cc1
  ? | . | . | 1.1 | -2.6% | 5.1% | .
COc1cc(NC(=O)c2csc(-c3ccncc3)n2)cc(C(=O)Nc2cccc(C(F)(F)F)c2)c1
  -7&1 | -1 | 9% | 0.6&2.2 | -15%&-23% | 0.9%&2.6% | 2.7
COc1ccc(C(=O)Oc2cccnc2)cc1
  14 | 4 | 5% | 0.4 | -0.3% | 2.6% | 2.0
CC(C)N1CC(C(=O)Nc2ccc(C#N)cc2)CC1=O (centres undefined)
  -1 | -22 | 14% | 0.5 | 0.4% | 1.0% | 0.0
COC(=O)c1cccc(-n2cnnn2)c1
  -12 | 18 | 6% | 1.5 | -1.3% | -4.1% | 1.7
CCCCNc1c(N)n(CC(C)C)c(=O)[nH]c1=O
  3 | -16 | 10% | 1.3 | -23% | 0.3% | -22
COC(=O)n1c(=O)oc2cc(S(=O)(=O)N3CCCCC3)ccc21
  22 | 28 | 16% | 1.8 | -0.8% | 1.8%[38.3 µM] | 0.7
CC(C)c1ccc(NC(=O)c2ccc(F)c(S(=O)(=O)N3CCc4ccccc43)c2)cc1
  6 | . | . | 1.9 | -7.4% | 0.8% | .
O=c1c2cc(Cl)ccc2[nH]c(=S)n1Cc1cccs1
  16 | -5 | 11% | 0.2 | -9.5% | 7.0% | 3.2
CCN(C(=O)COC(=O)CNS(=O)(=O)c1ccc(C)cc1)C1CCS(=O)(=O)C1 (centres undefined)
  -13 | . | . | -0.2 | -1.4% | -0.9% | .
CCC(=O)N1CCN(c2ccc(NC(=O)c3ccco3)cc2)CC1
  -9 | -18 | 12% | 0.4 | -0.8% | 0.3% | 7.0
CCN1CCN(c2nc(-c3ccccn3)nc3ccccc23)CC1
  7 | -19 | ? | -0.7 | -3.0% | ? | 0.3
COc1ccc(C(O)(C(C)C)C(CN2CCOCC2)c2ccccc2)cc1 (centres undefined)
  . | 4 | 5% | . | 1.4% | 0.3% | -1.4
COc1ccc(CS(=O)(=O)CC(C)(O)c2ccc(Cl)cc2)cc1 (centres undefined)
  9 | 5 | 12% | 4.1 | -2.4% | -0.4% | -0.8
COC(=O)Nc1ccc(OCc2ccccc2)cc1
  -2 | 1 | 0% | -0.3 | 0.6% | 8.2%[38.3 µM] | 2.4
Cc1cc(Cl)c(S(=O)(=O)NCC2CCCO2)cc1OCC(N)=O (centres undefined)
  1 | 2 | 19% | -0.3 | -1.1% | -0.9% | 0.4
Cc1noc(C)c1C(=O)NNc1cc(Cl)ccc1Cl
  -15 | 20 | -14% | 1.3 | . | -0.4% | 3.2
O=C1C(=O)N(Cc2ccncc2)C(c2ccccc2F)/C1=C(\O)c1ccc2c(c1)OCCO2 (centres undefined)
  -8 | 1 | 3% | -0.4 | -1.1% | -0.3% | 1.3
c1ccc(C2CC(c3ccccc3)C(c3ccccc3)N2)cc1 (centres undefined)
  ? | 1 | -4% | 1.3 | 0.1% | 4.7% | -0.6
COc1ccc2c(c1)CCc1cc(C(=O)O)sc1-2
  -12 | 5 | 18% | 1.0 | 2.9% | -0.4% | 0.6
Cc1cc(N2CCN(c3ccccn3)CC2)n2c(nc3ccccc32)c1C#N
  -5 | 0 | 11% | 2.1 | 1.2% | 18% | 4.8
O=C(Nc1ccccc1N1CCOCC1)c1ccc2c(c1)OCO2
  -3 | 15 | 15% | 0.2 | . | 2.4% | 0.9
CCOc1ccc(S(=O)(=O)NC(Cc2cnc[nH]2)C(=O)O)cc1 (centres undefined)
  0 | 5 | 6% | -0.4 | . | 0.9% | -5.0
Cc1cc(=O)[nH]c(N/N=C/c2ccccn2)n1
  -1 | -1 | 8% | 0.6 | 2.6% | 1.0% | 3.4
Cc1ccc(Cc2c(-c3ccc(Cl)cc3)nc3ccc(Cl)cn23)cc1
  -5 | . | . | -0.2 | ? | 4.8% | .

Screening data from PubChem.
